Screening data deposited in PubChem by several laboratories.
CSC inhib = blocks cancer stem cells | cancer stem cell-like cells viability, luminescence | inhibition, % at 7.5 µM | 300,000 tested, 1.1% active | AID 2717;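 active = mean at 75% or more and at least half the replicates too; inconclusive = mean and replicates disagree; tested in HMLE shEcad cells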;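 note: 0% = median of negative and 100% = median of positive control wells; the first replicate is given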
eIF4H inh = inhibitors of RNA binding by human eIF4H; Q15056; eIF4H fluorescence polarization binding assay; inhibition, % at 35 µM; 290,000 tested, 0.94% active; AID 2012;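 active = 50% or more with normal probe brightness, or confirmed in later tests; inconclusive = above 50% with abnormal brightness, or retests that disagree; inactive = below 50% or failed in later tests; about a fifth of its hits are not listed in these tables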;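 note: calls also rest on retests at 20 µM and on dose response follow-up; 0% = protein and probe with vehicle and 100% = probe without protein; strong numbers were not always called active; many hits fall short of the cut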
Rce1 inh = yeast Ras-converting enzyme inhibition; yeast membranes, quenched prenylated peptide cleavage fluorescence; calls only; 290,000 tested, 0.27% active; AID 2563;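 active = fall in fluorescence gain of 50% or more versus controls, with final raw signal at or below 3038400; inconclusive = same 50% fall but final raw signal above 3038400; inactive = fall in fluorescence gain under 50%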;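 note: plate controls were neutral control wells for no effect and wells lacking membranes for full effect; tested at 10 µM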
Target sequence (Q03530 whole entry, looked up): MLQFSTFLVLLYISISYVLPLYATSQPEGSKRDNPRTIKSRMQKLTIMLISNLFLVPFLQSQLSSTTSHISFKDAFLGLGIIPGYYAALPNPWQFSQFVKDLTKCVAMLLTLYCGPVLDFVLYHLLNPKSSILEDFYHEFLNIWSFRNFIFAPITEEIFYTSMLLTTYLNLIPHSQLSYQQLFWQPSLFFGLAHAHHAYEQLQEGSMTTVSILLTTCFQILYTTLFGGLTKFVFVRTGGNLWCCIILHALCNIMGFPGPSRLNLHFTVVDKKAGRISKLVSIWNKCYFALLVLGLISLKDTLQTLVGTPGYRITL
HIV Env fusion = inhibitors of HIV Env-mediated cell fusion; HeLa-JRFL Env/CEM21 cell fusion, luciferase; inhibition, % at 12.3 µM; 360,000 tested, 1.1% active;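 active = mean replicate inhibition score of at least 50 and every replicate individually at or above 50; inconclusive = only one of the two criteria met; inactive = mean below 50 and not all replicates reaching 50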;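 note: 0% = plate neutral controls and 100% = maraviroc near 300 nM; one replicate is shown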
UUG fidelity = yeast start codon fidelity modulation; 350,000 tested, 0.13% active; S. cerevisiae UUG-firefly luciferase reporter, luminescence/redox ratio; activity score, % at 18.7 µM;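 active = replicate mean at a twofold rise or more, about +100% in these data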;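 note: firefly luciferase made from a UUG start codon reports start codon fidelity; reporter light over untreated wells divided by growth signal over untreated wells; some hits fall short of that in this replicate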
PABP FP inh = PABP-poly(A) binding inhibition. 290,000 tested, 1% active. inhibition, % at 35 µM. AID 2014. PABP-poly(A) RNA binding, fluorescence polarization;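 active = 50% or more with normal probe brightness, or confirmed in later tests; inconclusive = above 50% with abnormal brightness, or retests that disagree; inactive = below 50% or failed in later tests; about a fifth of its hits are not listed in these tables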;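 note: calls also rest on retests at 20 µM and on dose response follow-up; controls were probe without protein and protein plus probe with vehicle; some compounds called inactive have numbers as strong as hits; many hits fall short of the cut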
Target sequence (P11940 whole entry, looked up): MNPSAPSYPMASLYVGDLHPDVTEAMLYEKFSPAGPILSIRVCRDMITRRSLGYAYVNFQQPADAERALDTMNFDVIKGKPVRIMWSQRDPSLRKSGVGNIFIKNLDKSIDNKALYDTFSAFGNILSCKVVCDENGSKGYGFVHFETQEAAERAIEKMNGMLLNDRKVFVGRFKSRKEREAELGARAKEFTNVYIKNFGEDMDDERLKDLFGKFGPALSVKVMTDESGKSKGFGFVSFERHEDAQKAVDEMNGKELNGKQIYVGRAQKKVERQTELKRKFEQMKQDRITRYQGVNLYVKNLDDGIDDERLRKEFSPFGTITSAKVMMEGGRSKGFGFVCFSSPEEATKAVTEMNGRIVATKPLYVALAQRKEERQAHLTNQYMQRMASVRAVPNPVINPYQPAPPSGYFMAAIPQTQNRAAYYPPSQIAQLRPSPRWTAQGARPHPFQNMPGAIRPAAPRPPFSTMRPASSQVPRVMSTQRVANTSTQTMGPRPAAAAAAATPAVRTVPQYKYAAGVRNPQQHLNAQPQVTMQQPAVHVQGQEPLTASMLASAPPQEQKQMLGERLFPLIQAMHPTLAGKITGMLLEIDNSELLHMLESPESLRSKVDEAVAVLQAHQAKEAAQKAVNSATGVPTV
MT1-MMP act inh = inhibitors of human MT1-MMP activation. P50281. HT1080 RFP-PRO-GFP cells, GFP/RFP ratio fluorescence, overnight; percent of plate control window, DMSO zero. GFP/RFP ratio change, % at 20 µM. 360,000 tested, 0.061% active;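 active = GFP/RFP ratio change of at least 30% with cell ATP level not reduced by more than half and red fluorescence within 50% of control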; note: strong numbers were not always called active
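Material: RFP-PRO-GFP reporter HT1080 cells. Dosing: single-point 20 µM compound, 1% DMSO. Controls: DMSO and RFP-L50D-GFP cell wells. Timing: cells overnight before dosing, compound overnight, 37 °C, 5% CO2. Measure: GFP/RFP fluorescence ratio.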
eIF4H inh retest = also measured in eIF4H inh; calls as there; inhibition, %; compound at 20 µM; confirmation average;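 mean of two retest wells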
PABP FP inh retest = recorded beside PABP FP inh, whose call it bears; inhibition, %; compound at 20 µM; confirmation repeats;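 mean of two retest wells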
MT1-MMP act inh RFP = further read-out of MT1-MMP act inh, marked with its call; RFP signal change, %; measured here: RFP expression control read;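 0 = vehicle wells; hits needed this value within 50% of zero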
* = called active by the depositor; i = inactive; ? = inconclusive; / = not tested or not shown.

SMILES	CSC inhib	eIF4H inh	Rce1 inh	HIV Env fusion	UUG fidelity	PABP FP inh	MT1-MMP act inh	MT1-MMP act inh RFP	others
O=C(O)c1ccc(-c2ccc(/C=c3/sc4nc5ccccc5n4c3=O)o2)cc1Cl	-4	78	i	-1	/	78*	-41	3	eIF4H inh retest=39;PABP FP inh retest=96*
CCCCC/C=C/C1=CC(=O)C[C@H](c2ccc(OC)c(OC)c2)C1	3	/	/	-5	-8	/	6	-7
CC(=O)N(CCc1ccccc1)Cc1cc2ccc(C)c(C)c2[nH]c1=O	0	0	i	-28	-30	10	5	1
C[N+](C)(C)CCNC(=O)c1c(O)c2c([nH]c1=O)CCCC2	-12	1	i	/	-2	-6	0	-1
C/C(CS(=O)(=O)c1ccc(Cl)c(Cl)c1)=N/NC(N)=S	-8	-4	/	8	/	-4	5	-2
NNC(=O)c1sc2cc(C(F)(F)F)cnc2c1-c1ccccn1	/	4	/	21	/	3	0	0
CC(=O)Nc1c(NC(C)(C)C)c2ccccc2oc1=O	1	-3	i	2	/	7	2	2
COc1ccc(C(=O)NC2(C(F)(F)F)N=C3SCCN3C2=O)cc1 (stereo not drawn)	-18	-2	i	-40	-5	3	1	6
CC1CCN(C(=O)CSc2nc3[nH]ncc3c(=O)[nH]2)CC1	-17	1	i	-13	/	12	1	0
Cc1ccc(S(=O)(=O)N(C)c2ccc(OC(=O)CN3C(=O)NC4(CCCC4)C3=O)cc2)cc1C	-14	/	i	1	8	/	-2	3
O=C(Nc1cc2c(ccc3ccccc32)oc1=O)C1CCCCC1	-24	-6	i	/	-5	-4	2	4
CCn1c(C(=O)NC2CCC(C)CC2)cc2sccc21 (stereo not drawn)	3	-12	i	-41	-11	3	4	1
Cn1c(SCC(=O)N2CCCc3ccccc32)nnc1-c1ccccc1	-7	-8	i	/	0	-10	1	2
CC1CC(C)CN(C(=O)CCC(=O)Nc2nnc(C(C)C)s2)C1 (stereo not drawn)	-13	-7	i	-2	/	-2	4	1
Cc1ccsc1/C=N\NC(=O)CC(=O)NCc1ccccc1	-4	-10	i	11	/	16	4	3
CC(C)(C)c1ccc(C(=O)O)c(C(=O)c2ccccc2)c1	10	1	i	3	/	8	3	0
Cc1cc(Br)ccc1NC(=O)C1CCN(S(=O)(=O)c2cnc[nH]2)CC1	-18	1	i	0	-7	5	1	6
COc1cc(OC)cc(-c2n[nH]c(=S)n2-c2ccc3c(c2)OCCO3)c1	-2	-2	i	-13	/	-7	2	-7
COCCN(C(=O)C(F)(F)F)C(C(=O)NC1CCCCC1)c1ccco1 (stereo not drawn)	/	-7	i	-27	-14	-7	3	2
CCOC(=O)Nc1ccc2c(c1)N(C(=O)CCCl)c1ccccc1[S@]2=O	24	4	i	29	-6	1	-1	-9
Cc1ccc(COc2coc(CO)cc2=O)cc1	-12	0	i	-76	1	6	3	1
Cc1ccc2c(c1)NC(=O)C(CC(=O)Nc1ccc(CN3CCC(C)CC3)cc1)O2 (stereo not drawn)	/	2	i	/	-11	1	3	3
CCOc1ccc(N(CC(=O)NCCSc2ccccn2)S(=O)(=O)c2ccc(Cl)cc2)cc1	-3	2	/	38	-16	-1	-9	-3
CC(C)CC(=O)NC(=S)NCc1ccccc1	-8	-11	i	/	/	-9	0	0
CC(C)C(=O)NC(=S)Nc1ccc(S(=O)(=O)NC(C)(C)C)cc1	1	2	i	/	-11	10	2	-6
The listing continues.
SMILES	CSC inhib	eIF4H inh	Rce1 inh	HIV Env fusion	UUG fidelity	PABP FP inh	MT1-MMP act inh	MT1-MMP act inh RFP	others
CCN(CC)S(=O)(=O)c1cc(NC(=O)c2ccc(Br)s2)ccc1C	13	-7	i	-62	-11	16	-4	-25
COc1cc(Cl)ccc1OCc1cc(C(=O)NCCCN2CCCC2=O)no1	-14	-5	i	-8	-5	4	-2	1
CC(O)CN1CCN(C(=O)CN2C(=O)NC(c3ccccc3)(c3ccccc3)C2=O)CC1 (stereo not drawn)	-11	-8	i	4	17	-1	-3	-1
C[n+]1ccn(CC(=O)c2ccc(Cl)cc2)c1	-17	-6	i	-14	/	-6	1	1
CC1CCN(C(=O)Cn2nnc(-c3ccc(C(C)C)cc3)n2)CC1	2	-10	i	8	-4	0	4	-6
O=C(Nc1cccc(F)c1)c1cc(S(=O)(=O)NCCC2=CCCCC2)ccc1F	21	4	i	26	-10	10	2	-14
COc1ccc(C)cc1NC(=O)CN(C)S(=O)(=O)c1cccs1	-6	-14	i	/	5	-2	-3	2
N#Cc1ccc(NC(=O)N2CCC(c3nc4c(nnn4Cc4cccc(Cl)c4)c(=O)[nH]3)CC2)cc1	-2	-7	i	14	3	-10	8	-1
COc1cccc(N(C(=O)C2CSC(=O)C2)C(C(=O)NC(C)(C)C)c2ccncc2)c1 (stereo not drawn)	-5	5	i	8	/	12	5	2
COc1cc(C(=O)Nc2ccc3c(c2)Cc2cc(NC(=O)c4cc(OC)c(OC)c(OC)c4)ccc2-3)cc(OC)c1OC	-2	-7	i	-1	-7	-1	6	2
CNCC[C@@H](Oc1ccccc1C)c1ccccc1	3	/	i	3	-8	/	-2	2
O=C(NCc1cccnc1)c1ccc(NS(=O)(=O)c2ccc(F)cc2)cc1	4	-18	i	-3	-37	-4	-3	-4
COc1cc2ccc(=O)oc2c(O)c1OCC=C(C)C	11	-4	i	/	-10	3	0	5
O=C(NCc1ccccc1CN1CCCC1)c1cc2ccccc2o1	-27	/	/	3	5	/	-4	-3
CCOC(=O)c1c(C)[nH]c(C(=O)COC(=O)c2ccc(N3CCCC3=O)cc2)c1C	0	6	i	-40	/	3	2	2
COc1ccc(C(C)=O)cc1CSc1nc2nc(C)cc(C)n2n1	10	2	i	23	-3	-7	-3	3
O=C1N(Cc2ccccc2)c2ccccc2OC1(F)F	/	/	/	13	-6	/	-3	8
CC(=O)N1N=C(c2ccc(C)o2)CC1c1ccc(Br)cc1 (stereo not drawn)	-22	-6	i	-44	3	-1	-3	0
Cc1cc(=O)n2nc(N3CCCC(C(=O)NCc4ccc(F)cc4)C3)sc2n1 (stereo not drawn)	-2	-10	i	2	-5	2	3	-1
O=C(O)CCCn1cc(NC(=O)COc2ccccc2F)cn1	/	0	i	-8	-18	15	0	1
Cc1ccc(-c2c[n+](CC(=O)N3c4ccccc4Sc4ccccc43)c3n2CCC3)cc1	-6	-11	i	23	/	-17	-33	-26
CC1=Nc2cc(C(=O)N3CCCC3)ccc2Sc2c(C)ccc(C)c21	33	-16	i	7	22	15	-4	-2
COc1c(C)cccc1C(=O)Nc1ccc(OCC(=O)N2CCOCC2)cc1C	5	15	i	-12	-12	-7	1	1
COc1ccccc1NC(=S)NC(C)=O	-8	-4	i	-3	/	0	4	3
CCOC(=O)Cc1csc(NC(=O)Nc2ccc(C)cc2)n1	/	-8	i	-18	/	7	8	-8

Among those listed so far, these have a CF3 group.
SMILES	CSC inhib	eIF4H inh	Rce1 inh	HIV Env fusion	UUG fidelity	PABP FP inh	MT1-MMP act inh	MT1-MMP act inh RFP	others
NNC(=O)c1sc2cc(C(F)(F)F)cnc2c1-c1ccccn1	/	4	/	21	/	3	0	0
COc1ccc(C(=O)NC2(C(F)(F)F)N=C3SCCN3C2=O)cc1 (stereo not drawn)	-18	-2	i	-40	-5	3	1	6
COCCN(C(=O)C(F)(F)F)C(C(=O)NC1CCCCC1)c1ccco1 (stereo not drawn)	/	-7	i	-27	-14	-7	3	2

New compounds follow.
SMILES	CSC inhib	eIF4H inh	Rce1 inh	HIV Env fusion	UUG fidelity	PABP FP inh	MT1-MMP act inh	MT1-MMP act inh RFP	others
COc1ccc(CCN(C)CC(O)c2ccccc2)cc1OC (stereo not drawn)	-5	-6	i	-6	/	6	1	2
Cn1c(=O)c2c(nc(N/N=C/c3ccc(OC(=O)c4ccco4)cc3)n2Cc2ccccc2Cl)n(C)c1=O	-2	-3	i	/	-10	-2	-1	-17
Cc1csc(NC(=O)CSc2nnc(CCNC(=O)c3cccs3)n2C)n1	-5	3	i	-33	-25	1	0	2
COC(=O)c1ccccc1NC(=O)CN1CCC(NC(=O)c2ccc(C)cc2)CC1	3	-2	i	-79	8	2	1	-1
CC(=O)Nc1ccc(C(=O)N2CC(=O)NC(=O)C2)cc1	6	-4	i	2	-10	-7	3	-2
CCOc1ccc(N2CC(C(=O)Nc3cc(C)on3)CC2=O)cc1 (stereo not drawn)	-28	1	i	-11	/	-16	4	0
N#Cc1cccc(S(=O)(=O)N2CCN(c3ccnc4cc(Cl)ccc34)CC2)c1	0	18	i	46	6	8	-1	-5
CCOC(=O)C1(Cc2ccccc2)CCCN(C(=O)c2ccc(-n3ccnc3)cc2)C1 (stereo not drawn)	-11	8	i	15	-8	-7	1	-1
Cc1ccccc1NC(=O)c1c2c(nc3ccccc13)CCC2	-2	14	i	24	7	0	0	5
CCOc1ccc(-n2c(SCC(=O)NCc3ccco3)nc3c([nH]c4ccccc43)c2=O)cc1	-2	/	i	2	-11	/	-11	-10
O=C(CNS(=O)(=O)c1ccc(F)cc1)N1CCN(c2ccccc2)CC1	-1	4	i	/	5	0	1	-2
CN(C)C(CNC(=O)Cc1ccc([N+](=O)[O-])cc1)c1ccccc1 (stereo not drawn)	1	-6	i	7	-14	-9	1	1
NC(=O)c1c(NC(=O)Cn2nc(C(=O)O)c3ccccc3c2=O)sc2c1CCC2	-12	?	i	21	-10	3.6*	2	3	PABP FP inh retest=101*
Fc1ccc(/C=N/NC2=Nc3cccc4cccc2c34)cc1	6	?	i	-291	-12	-4	-7	10
Cc1noc(C)c1CSc1nnc2scc(-c3ccccc3)n12	-16	27	i	-52	-18	49	2	0
CC(C)(C)NC(=O)Nc1ccc(F)c(Cl)c1	-32	-3	i	15	/	-4	-3	2
COc1ccc(-c2nc(CS(=O)CC(=O)NC3CCCCC3C)c(C)o2)cc1OC (stereo not drawn)	-7	-26	i	-4	15	0	-2	-2
CCC(CC)C(=O)c1c[nH]c(C(=O)NCC2CCCO2)c1 (stereo not drawn)	-9	4	i	/	-2	2	-3	7
O=C(Nc1ccnn1C1CCN(C/C=C/c2ccccc2)CC1)c1ccccc1Cl	-6	-5	/	-283	-3	-4	0	4
O=C(c1ccc(OC2CCN(Cc3ccccc3C(F)(F)F)CC2)cc1)N1CCCCC1	0	-5	/	/	-11	6	0	-11
O=C(O)c1cccc(NC(=S)NC(NC(=O)c2cccc([N+](=O)[O-])c2)C(Cl)(Cl)Cl)c1 (stereo not drawn)	-3	-4	i	9	-9	-8	-4	4
COCCN(C(=O)CSc1nnc(C)n1Cc1ccccc1)c1c(N)n(Cc2ccccc2)c(=O)[nH]c1=O	-9	2	i	/	/	8	2	2
CCOC(=O)c1ccccc1NC1CC(=O)N(c2ccccc2C)C1=O (stereo not drawn)	-14	8	i	-2	-11	10	-14	1
COC(=O)C(NS(=O)(=O)c1cccc(S(=O)(=O)NC(C(=O)OC)c2ccccc2)c1)c1ccccc1 (stereo not drawn)	-14	-6	i	-25	-2	-1	2	2
COc1ccc(CCNC(=O)CN2C(=O)c3ccccc3C2=O)cc1	-11	5	i	/	-32	7	1	4
Oc1ccc(Nc2ncnc3c2oc2ccccc23)cc1	5	-5	i	1	-15	12	-1	-5
Brc1ccc(C2=Nn3c(Cn4nnc5ccccc54)nnc3SC2)cc1	-3	3	i	10	-1	-12	2	3
O=C(Cn1nnc2ccccc2c1=O)N1CCOCC1	-8	-3	i	12	/	0	-5	-1
Cc1ccc(O)c(C(=O)c2cnn(C(=O)COc3ccccc3C#N)c2)c1	-2	-8	i	/	/	-10	/	/
